Screens (PubChem)
2A Renilla – FMDV 2A StopGo reporter, Renilla signal | AID 1745857 | Potency, µM (highest dose often 57.5 µM), for the others: at the highest dose signal change, negative = less light | 0.32% of 120,000 active | HEK cells with a luciferase reporter of 2A StopGo recoding; active means well fitted falling curve with a large enough effect; inconclusive means small, poorly fitted or top-dose-only effect; inactive means no such curve, though single readings can be large or run the other way; also: nearly all actives have a fitted effect of over 55% in size; overnight with compound
2A firefly – FMDV 2A StopGo reporter, firefly signal. HEK cells with a luciferase reporter of 2A StopGo recoding. Potency, µM (top dose mostly 57.5 µM), for inactives: at the top dose signal change, negative = less light. 0.23% of 120,000 active. AID 1745856; active = well fitted falling curve with a large enough effect; inconclusive = small, poorly fitted or top-dose-only effect; inactive = no such curve, though single readings can be large or run the other way; also: nearly all actives have a fitted effect of over 60% in size; overnight with compound
Starred values were filed as active, the others as inactive; u = inconclusive; & = joins results of further samples; [ ] = another dose, or the depositor's remark. % is scaled to controls: 0 for no effect and ±100 for the full control effect; potency is read from the fitted curve at half-maximal effect.

Order of results – 2A Renilla, 2A firefly
1. Fc1ccccc1-c1nnc(SCc2cn3ccccc3n2)n1C1CC1
    6.0%, 20.4%
2. Cc1ccc(Cl)cc1N1CCN(C(=O)c2sc3nc4n(c(=O)c3c2C)CCC4)CC1
    -14.2%, -19.2%
3. CCOC(=O)N1CCC(NC(=O)c2c(C)nn(-c3ccc(C)cc3)c2-n2cccc2)CC1
    -3.7%, 11.1%
4. CCCCC(=O)Nc1ccc(Cl)c2ncccc12
    6.2%, -6.4%
5. CCCCCNc1nc2ccccc2nc1NS(=O)(=O)c1cccc(C)c1
    102.0%[activator], 5.0%
6. O=C(CSc1nc(-c2cccs2)cc(C(F)(F)F)n1)NC1CCCCC1
    18.5%, 5.3%
7. Cc1c(CC(=O)N2CCN(c3ccccn3)CC2)c(=O)oc2cc(O)ccc12
    -6.0%, -1.6%
8. CCOc1ccc(S(=O)(=O)NCCC(=O)N(C)CC(=O)Nc2ccc(OC)cc2)cc1
    38.0%[activator], 4.9%
9. N#Cc1ccc(NC(=O)CNc2cc(S(=O)(=O)N3CCCCC3)ccc2N2CCCCC2)cc1
    46.3%[activator], -1.3%
10. O=S(=O)(c1ccc(F)cc1)n1cc(Cl)cn1
    9.5%, 12.9%
11. Cc1ccc(/C=C(/C#N)C(=O)NC2CCCC2)cc1C
    90.7%[activator], 64.6%[activator]
12. CCCC(=O)N1CC2(C)CN(C(=O)CCC)CC(CCC)(C1)C2=O
    3.8%, 16.4%
13. N#Cc1ccccc1Cn1c(=O)n(-c2ccccc2)c(=O)c2c3c(sc21)CCC3
    -13.9%, -4.6%
14. COCCn1cnc2c1c(=O)n(CC(=O)Nc1ccc3c(c1)OCCO3)c(=O)n2CC(C)C
    9.9%, 23.0%
15. COc1ccc(-c2noc(Cn3cnc4c(nnn4-c4ccc(F)cc4)c3=O)n2)c(OC)c1
    -1.3%, 15.0%
16. CC(C)CNC(=O)N1CCN(S(=O)(=O)c2ccc3c(ccn3C)c2)CC1
    3.7%, -0.3%
17. O=C(Cc1ccc(Cl)cc1)NCCc1c[nH]c2ccccc12
    0.1%, 12.0%
18. Cc1ccc(CNC(=O)c2sc3nc[nH]c(=O)c3c2C)cc1
    13.2%, 36.8%[activator]
19. S=C1NC2(CCCCC2)N=C1c1ccc(Cl)cc1
    -5.5%, 3.2%
20. CC1CC1CNC(=O)c1nccnc1N (stereo not given)
    9.6%, 0.0%
21. O=c1cc(CN(Cc2ccc(F)cc2)C2CCCCC2)nc2ccccn12
    -16.3%[1.06 µM], 3.8%
22. CNc1nc(-c2ccc3c(c2)CCC(=O)N3)cs1
    2.6%, 184.7%[activator]
23. COCCCNC(=O)c1nn(C)c2c1CS(=O)(=O)c1ccccc1-2
    -2.2%, -3.9%
24. COc1ccc(-n2nc3c(N4CCC(C(=O)NCc5cccc(F)c5)CC4)nnc(C)c3c2C)cc1
    -6.6%, -16.1%
25. Cn1c(-c2ccc(S(=O)(=O)N3CCCC3)cc2)csc1=Nc1ccc(Cl)c(Cl)c1
    u, -7.7%
26. O=[N+]([O-])c1cccc2nc(/C=C/c3cccc(O)c3)ccc12
    -8.5%, 0.0%
27. Cn1cnc2c1c(=O)n(CCCSc1nnnn1-c1ccccc1)c(=O)n2C
    -9.0%, 211.9%[activator]
28. CCc1noc(COc2ccc3c(CC)cc(=O)oc3c2)n1
    -3.6%, 11.3%
29. Cc1ccc(CCNC(=O)c2cn(C)c3ccc(S(=O)(=O)N4CCC(C)CC4)cc3c2=O)cc1
    -10.6%, -12.2%
30. COc1ccc(-c2nc(C)c(CCNC(=O)C(=O)Nc3ccccc3F)s2)cc1
    -10.5%, 30.9%[activator]

Rewritten in transposed form: entries from further up.
(7) Cc1c(CC(=O)N2CCN(c3ccccn3)CC2)c(=O)oc2cc(O)ccc12
(8) CCOc1ccc(S(=O)(=O)NCCC(=O)N(C)CC(=O)Nc2ccc(OC)cc2)cc1

Screen / compound no. | 7 | 8
2A Renilla | -6.0% | 38.0%[activator]
2A firefly | -1.6% | 4.9%

Carrying on.
Order of results – 2A Renilla, 2A firefly
31. CC(=O)Nc1ccc(NC(=O)CSCc2csc(-c3ccc(C)cc3)n2)cc1
    u, u
32. CCCCCCCC(=O)[O-].CCCCCCCC(=O)[O-].[Zn+2]
    -6.2%, -0.2%[11.5 µM]
33. CC(C)(C)c1ccccc1NC(=O)CCC(=O)O
    -4.1%, 1.2%
34. CCc1ccc2c(CN3CCNC(=O)C3)cc(=O)oc2c1
    -5.1%, 11.0%
35. O=C(Nc1ccc(S(=O)(=O)N2CCCCC2)cc1)c1cc2c(=O)n3ccccc3nc2s1
    -0.1%, -0.4%
36. O=C(Cn1cnc2c(oc3ccccc32)c1=O)Nc1ccc(OC(F)(F)F)cc1
    -0.2%, 3.8%
37. Cc1ccc(C(=O)c2cn(CC(=O)NCc3ccccc3Cl)c3nc(C)ccc3c2=O)cc1
    3.7%, -1.2%
38. CCc1ccc(NS(=O)(=O)c2ccc3[nH]cc(C(=O)NC4CCCC4)c(=O)c3c2)cc1
    220.6%[activator], 5.3%
39. Cc1ccc2nc(-c3cccnc3)cc(C(=O)O)c2c1
    -6.1%, 7.7%
40. CCS(=O)(=O)Nc1cccc(C2=NN(S(=O)(=O)c3ccc(F)cc3)C(c3ccccc3)C2)c1 (stereo not given)
    161.3%[activator], 11.5%
41. COc1cccc(CNC(=O)c2cc(C)nc3ccccc23)c1
    -1.4%, 1.9%
42. Cc1ccc(Cn2c(C(C)NC(=O)c3ccccc3)nc3ccccc32)cc1 (stereo not given)
    33.9%[activator], -3.6%
43. COc1ccc(CCC(=O)C(C#N)C(=O)Nc2cccc(C)c2)cc1 (stereo not given)
    32.4%[activator], 0.0%
44. Cc1ccc(CC(=O)NC2CCC(C)CC2)cc1C (stereo not given)
    3.5%, 0.0%
45. Cc1ccc2c(=O)cc(C(=O)Nc3ccc(S(=O)(=O)N(C)Cc4ccccc4)cc3)oc2c1C
    15.5%, 1.1%
46. CCOC(=O)c1ccc2oc(=O)n(Cc3ccccc3)c2c1
    65.0%[activator], -3.7%
47. Cc1nc2ccc(C(=O)N3CCN(CC(=O)N4CCCCCC4)CC3)cc2nc1C
    3.5%, 16.7%
48. Cc1cc2oc(=O)cc(CN3CCN(CCO)CC3)c2cc1Cl
    -12.0%, -8.6%
49. O=C(CSc1nnc2ccc3ccccc3n12)c1ccc(F)cc1
    -3.4%, 59.9%[activator]
50. COc1cc(OC)c(NS(=O)(=O)c2cc3c(cc2C)NC(=O)CO3)cc1Cl
    12.3%, -5.5%
51. Cc1cc(C)c(NC(=O)c2nc3ccccc3nc2N2CCOCC2)c(C)c1
    8.9%, 10.9%
52. Cc1oc2ccc(O)c(CN3CCOCC3)c2c1C(=O)Nc1ccccc1
    2.2%, -1.9%
53. CCCn1ccc2c(OCC(=O)Nc3cc(C)ccc3C)cccc2c1=O
    u, u
54. Cc1ccc(Cl)cc1-n1ncc2c(NCCCn3ccnc3)ncnc21
    -8.5%, -6.1%
55. COc1ccc(-c2cc(C(F)(F)F)nc(SCC(=O)NCc3ccc(F)cc3)n2)cc1
    -2.3%, -5.9%
56. Cc1ccccc1CN1C(=O)c2ccccc2S(=O)c2ccc(C(=O)N3CCOCC3)cc21 (stereo not given)
    18.5%, 1.2%
57. Cc1ccc(C)c(C(=O)OCC(=O)NC2CCCC2)c1
    -11.6%, 36.5%[activator]
58. Cc1ccc(CCNC(=O)c2cn(C)c3ccc(S(=O)(=O)N4CCCCC4)cc3c2=O)cc1
    -2.6%, -11.3%
59. CCOC(=O)c1c(C)[nH]c(C(=O)OCC(=O)Nc2ccc(Cl)cn2)c1C
    6.8%, -2.9%
60. Cc1ccc(C)c(C(=O)Nc2ccc3oc(C)nc3c2)c1
    17.0%, 186.7%[activator]
61. CC(C)(C)OC(=O)NC(CC(N)=O)C(=O)O (stereo not given)
    8.9%, 10.8%
62. CCONC(=O)c1cccc(CSC)c1
    11.2%, 20.6%
63. O=CN1CCN(C(=O)CCC(=O)O)CC1
    0.0%, 71.8%[activator]
64. CCOC(=O)c1[nH]c2c(c1Cc1ccccc1)C(=O)CC(c1ccc(OC)cc1)C2 (stereo not given)
    185.9%[activator], -4.0%
65. COc1ccc(-c2nc(S(=O)(=O)c3ccc(C)cc3)c(N3CCCCC3)o2)cc1
    -2.4%, -8.5%
66. CC1CN(C)C(C)CC1O (stereo not given)
    17.8%, 12.2%
67. CC(=O)NC(C(=O)N1CCC(c2c[nH]c3ccccc23)CC1)C(C)C (stereo not given)
    -13.1%, -11.8%
68. COc1ccc(OC(=O)c2ccc(Br)cc2)c(C(C)=O)c1
    8.8%, 18.1%
69. C=CCOc1ccc(NC(=O)C(=O)c2c(C)[nH]c3ccccc23)cc1
    18.4%, 20.4%
70. O=C(CSc1ccc2c(c1)OCCO2)Nc1ccc2c(c1)OCCO2
    -19.3%[1.06 µM], 56.8%[activator]
71. CCC(=O)Nc1ccccc1-c1nc2ccccc2n(C(C)C(=O)Nc2ccc(OC)cc2)c1=O (stereo not given)
    22.3%, 116.6%[activator]
72. COc1c(C)cccc1C(=O)Nc1ccc2oc(-c3cncc(Br)c3)nc2c1
    38.4%, 234.4%[activator]
73. Cc1c(C(=O)NN2CCCCC2)nn(-c2ccc(Cl)cc2Cl)c1-c1ccc(Cl)cc1
    19.7%, -15.0%[11.5 µM]
74. Cc1ccc(NC(=O)C2CCN(c3cnc4ccccc4n3)CC2)c(C)c1
    0.6%, 8.3%
75. O=C(O)C1CC(=O)N(c2ccc3c(c2)OCCO3)C1 (stereo not given)
    -17.0%, -16.5%
76. CC(C)c1ccccc1NC(=O)Cn1cnc2c1c(=O)n(C)c(=O)n2C
    3.6%, -2.7%
77. CCN1CCN(Cc2nc3c(c(=O)n(C)c(=O)n3C)n2CCOC)CC1
    -1.6%, -4.3%
78. O=C(NCCC(=O)N1CCN(c2ncccn2)CC1)c1ccc(Cl)cc1
    8.5%, 11.3%
79. CCOC(=O)NC(OCc1ccccc1)(C(=O)OC)C(F)(F)F (stereo not given)
    -5.8%, 0.4%
80. CCC(C)NC(=O)c1[nH]c2cc(C)ccc2c1Sc1ccc(Cl)cc1 (stereo not given)
    1.9%, -3.0%
81. Cc1ccc(OCC(=O)NCc2nncn2C)c(C)c1
    -0.9%, 25.8%
82. CN(CC(=O)NCC(F)(F)F)Cc1cccc(C#N)c1
    -4.2%, 13.5%
83. CCOc1cc(CNC(=O)C2COc3ccccc3C2)cc(OCC)c1OCC (stereo not given)
    8.3%&0.1%, 11.5%&-20.3%
84. Cc1cccc(NC(=O)c2nccnc2N)n1
    7.7%, 165.6%[activator]
85. Brc1cccc(Oc2ccc3nnnn3n2)c1
    -7.1%, 0.0%
86. COc1ccc(C(=O)N2CCC(N3CCCCCC3)CC2)cc1
    -7.8%, -9.4%
87. CCn1cc(C(=O)N(C)Cc2ccccc2)c(=O)c2cc(S(=O)(=O)N3CCCCCC3)ccc21
    40.6%[activator], -4.7%
88. COc1ccc(S(=O)(=O)Nc2ccccc2CCc2nc3ccccc3n2C)cc1
    84.7%[activator], 22.5%
89. CC1CCCC(NC(=O)Cc2cccc3ccccc23)C1C (stereo not given)
    156.8%[activator], 41.0%[activator]
90. O=C(COC(=O)c1ccc2ccccc2n1)Nc1cc(Cl)cc(Cl)c1
    7.5%, 14.0%
91. Cc1ccc(-c2nc3ncccc3o2)cc1NC(=O)c1ccccc1Br
    27.4%, 6.5%
92. CCOc1cc(C(=O)Nc2cc3c(cc2N2CCOCC2)n(C)c(=O)n3C)cc(OCC)c1OCC
    -7.3%, -11.6%

Among those listed so far, these have a Cl atom.
Order of results – 2A Renilla, 2A firefly
2. Cc1ccc(Cl)cc1N1CCN(C(=O)c2sc3nc4n(c(=O)c3c2C)CCC4)CC1
    -14.2%, -19.2%
4. CCCCC(=O)Nc1ccc(Cl)c2ncccc12
    6.2%, -6.4%
10. O=S(=O)(c1ccc(F)cc1)n1cc(Cl)cn1
    9.5%, 12.9%
17. O=C(Cc1ccc(Cl)cc1)NCCc1c[nH]c2ccccc12
    0.1%, 12.0%
19. S=C1NC2(CCCCC2)N=C1c1ccc(Cl)cc1
    -5.5%, 3.2%
25. Cn1c(-c2ccc(S(=O)(=O)N3CCCC3)cc2)csc1=Nc1ccc(Cl)c(Cl)c1
    u, -7.7%
37. Cc1ccc(C(=O)c2cn(CC(=O)NCc3ccccc3Cl)c3nc(C)ccc3c2=O)cc1
    3.7%, -1.2%
48. Cc1cc2oc(=O)cc(CN3CCN(CCO)CC3)c2cc1Cl
    -12.0%, -8.6%
50. COc1cc(OC)c(NS(=O)(=O)c2cc3c(cc2C)NC(=O)CO3)cc1Cl
    12.3%, -5.5%
54. Cc1ccc(Cl)cc1-n1ncc2c(NCCCn3ccnc3)ncnc21
    -8.5%, -6.1%
59. CCOC(=O)c1c(C)[nH]c(C(=O)OCC(=O)Nc2ccc(Cl)cn2)c1C
    6.8%, -2.9%
73. Cc1c(C(=O)NN2CCCCC2)nn(-c2ccc(Cl)cc2Cl)c1-c1ccc(Cl)cc1
    19.7%, -15.0%[11.5 µM]
78. O=C(NCCC(=O)N1CCN(c2ncccn2)CC1)c1ccc(Cl)cc1
    8.5%, 11.3%
80. CCC(C)NC(=O)c1[nH]c2cc(C)ccc2c1Sc1ccc(Cl)cc1 (stereo not given)
    1.9%, -3.0%
90. O=C(COC(=O)c1ccc2ccccc2n1)Nc1cc(Cl)cc(Cl)c1
    7.5%, 14.0%
